Screens (PubChem)
Mtb growth: M. tuberculosis H37Rv growth inhibitors, H37Rv strain (AID 1626) | M. tuberculosis H37Rv growth inhibition; higher % means a stronger effect | inhibition, % at 10 µM; hits with a dose series show IC50 in µM | 0.95% of 220,000 active;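 active = confirmed in a dose series; inconclusive = inhibition above 80% but not taken into the dose series; inactive = below 80% or under 30% at every dose of the series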;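 also: bacteria incubated seven days before Alamar blue readout; 0% = bacteria only wells and 100% = bacteria with antibiotic wells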
RecA intein inh: Mtb RecA intein splicing inhibitors, primary screen, biochemical, fluorescence, HTS | Protein RecA (Mycobacterium tuberculosis (strain ATCC 25618 / H37Rv)), P9WHJ3 | cell-free RecA intein splicing | inhibition, %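 (about 9 µM by stock and volumes)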 | 0.75% of 290,000 active | AID 2221, 2009; in the data active = inhibition above about 30%; inconclusive = no clear call, values can overlap the other calls;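 also: 0% = vehicle wells and 100% = reference inhibitor control wells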
Target sequence (P9WHJ3 whole entry, looked up): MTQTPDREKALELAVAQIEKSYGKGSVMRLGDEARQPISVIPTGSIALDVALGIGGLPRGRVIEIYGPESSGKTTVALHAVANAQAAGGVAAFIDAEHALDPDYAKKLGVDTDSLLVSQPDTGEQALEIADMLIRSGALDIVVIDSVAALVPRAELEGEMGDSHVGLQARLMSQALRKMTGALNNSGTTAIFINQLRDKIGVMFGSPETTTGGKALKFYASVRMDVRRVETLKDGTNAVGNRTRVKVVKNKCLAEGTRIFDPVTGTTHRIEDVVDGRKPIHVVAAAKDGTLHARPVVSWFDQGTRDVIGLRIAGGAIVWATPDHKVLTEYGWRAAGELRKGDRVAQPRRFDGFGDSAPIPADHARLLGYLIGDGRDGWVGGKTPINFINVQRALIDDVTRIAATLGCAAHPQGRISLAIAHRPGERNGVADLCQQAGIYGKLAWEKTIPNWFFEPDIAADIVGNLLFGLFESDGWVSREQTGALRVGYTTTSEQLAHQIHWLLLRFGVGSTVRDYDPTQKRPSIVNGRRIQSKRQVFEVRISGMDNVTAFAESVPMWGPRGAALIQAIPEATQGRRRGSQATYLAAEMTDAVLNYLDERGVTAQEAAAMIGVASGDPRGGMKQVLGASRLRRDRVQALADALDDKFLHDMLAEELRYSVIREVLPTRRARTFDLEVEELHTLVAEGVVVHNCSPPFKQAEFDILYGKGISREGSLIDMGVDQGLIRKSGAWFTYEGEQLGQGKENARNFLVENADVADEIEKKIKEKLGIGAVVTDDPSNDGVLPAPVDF
Mtb bLac sens: beta-lactam sensitization of Mtb H37Rv, H37Rv. M. tuberculosis H37Rv growth with meropenem, percent inhibition; hits of this screen are not shown here. inhibition, % at 25 µM. 0.27% of 330,000 active;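 active = about 74% or more and at least 40 points above the plate without the antibiotic, then above 30% in a dose series; inconclusive = first-round hits that could not be retested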;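 also: growth measured after seven days incubation then overnight dye step; 0% = bacteria only wells and 100% = bacteria with antibiotic; twin plates without the antibiotic show which effects depend on it; some results filed as inactive read as strong as hits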
YopH inh: YopH tyrosine phosphatase inhibitors, primary screen, biochemical, fluorescence Ex485/Em525 | YopH tyrosine phosphatase [Yersinia enterocolitica] | inhibition, %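 (about 10 µM by stock and volumes)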 | 0.16% of 140,000 active;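 active = inhibition of 50% or more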;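 also: controls were vehicle for no effect and minimum signal wells for full effect; inactives centre near -20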
Arbovirus inh: antivirals against arbovirus infection, primary screen, cell-based, full library, 10K replicate subset; AID 1251, 2008; inhibition, % at 10 µM; arbovirus infection cell-based antiviral screen; 0.37% of 200,000 active;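 active = inhibition from about 30%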;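 also: bluetongue infection of BSR cells; cell survival read as ATP light after 72 h; 0% = infected wells without compound and 100% = uninfected wells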
Arbovirus inh repeat: second read-out of Arbovirus inh, no call of its own (marks repeat the call); inhibition, %; measured here: 10K subset replicate screen; many hits read low in the repeat;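 first of two repeat runs on a subset; 0% = infected and 100% = uninfected wells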
* = called active by the depositor; ? = inconclusive; . = not tested or not shown.

SMILES | Mtb growth | RecA intein inh | Mtb bLac sens | YopH inh | Arbovirus inh | others
CC(O)CNCCCOc1cccc(C(F)(F)F)c1 (centres undefined) | 25% | -2.4 | 18 | . | 0
COc1ccc(C(=O)c2ccc(N(C)C)cc2)c2ccccc12 | -5% | 11 | 9 | -16 | -14
Cc1nn(C)cc1/C=N/NC(=O)Cn1nccc1C | -7% | 10 | -1 | -31 | 10
CCC/C=C1/CCCOC(C(=O)NCc2ccccn2)(C(F)(F)F)C1 (centres undefined) | -6% | -2.7 | -6 | . | .
COc1cc(C(=O)N2CCN(Cc3ccc4c(c3)OCO4)CC2)c([N+](=O)[O-])cc1OC | . | -0.5 | -8 | . | .
Cc1cc(NC(=O)C(C)SCC(=O)Nc2cc(C(F)(F)F)ccc2N2CCOCC2)no1 (centres undefined) | . | 1.8 | 2 | . | .
COc1ccc(-c2cc(C(=O)OCC(=O)c3cccc([N+](=O)[O-])c3)c3cc(C)ccc3n2)cc1 | 5% | 2.9 | 23 | -15 | 7
COc1ccc(OC)c(/C=N/NC(=O)CSc2cc(C)nc3c(OC)cccc23)c1 | -3% | 12 | 2 | . | 1
COc1ccc(S(=O)(=O)NCC2CCCO2)cc1NC(=O)c1ccccc1F (centres undefined) | . | -4.6 | 4 | . | .
COc1ccc(C2Nc3ccccc3C(=O)N2c2ccccc2)cc1Cn1cc([N+](=O)[O-])cn1 (centres undefined) | -8% | 6.3 | 2 | -30 | 18
Cc1ccc(S(=O)(=O)Nc2cccc(-c3ccc(N4CCCCCC4)nn3)c2)c(C)c1 | . | 5.3 | 7 | . | .
C#CCNC(=O)C1=C[C@@H](c2coc3ccccc3c2=O)C[C@@H](OCc2ccc(CO)cc2)O1 | -10% | 2.4 | -3 | . | 4
Cc1nc(/C=[N+](\[O-])C(C)(C)/C=N/O)n(O)c1C | 0% | 2.7 | 7 | -43 | 2
CN1CCN(c2cc(N3CCc4ccccc4C3)c(F)cc2[N+](=O)[O-])CC1 | 38% | 11 | 28 | -40 | -44
C/C(=C\c1ccccc1)CN1CCN(c2ccccc2)CC1 | 0% | 3.3 | -9 | 14 | 16
C=CCOc1c(Br)cc(/C=N/NC(N)=O)cc1OC | 6% | -0.5 | 1 | -2 | -5
O=C(CSc1nnc(CN2CCCCC2)n1-c1ccccc1)c1ccc2c(c1)OCO2 | 11% | 1.8 | -1 | -2 | -2
O=c1[nH]c2cc3c(cc2cc1CN(Cc1ccco1)C(=S)NCC1CCCO1)OCCO3 (centres undefined) | -6% | 4.4 | -2 | . | -22
CC(CNC(=O)c1ccc(OC2CCN(Cc3ccccn3)CC2)cc1)Oc1cccnc1 (centres undefined) | . | 0.6 | 8 | . | .
NC(=O)c1ccc(NC(=O)COC(=O)C2(c3cccc(F)c3)CCCC2)cc1 | 4% | -0.2 | 7 | . | 5
COC(=O)CNS(=O)(=O)c1ccc(OC)cc1 | -7% | -0.5 | -2 | 1 | 8
CCOC(=O)N1CCN(C(=O)c2cccc(S(=O)(=O)Nc3ccc(OC)cc3)c2)CC1 | . | 4.6 | -17 | . | .
CC1CC(C)CN(S(=O)(=O)c2ccc(C(=O)NCc3ccco3)cc2)C1 (centres undefined) | -6% | 0.2 | -6 | . | 4
CCCCCn1c(N)c(C(=O)NCc2cccs2)c2nc3ccccc3nc21 | 12% | 82* | -12 | -5 | 2
CCOC(=O)c1c(-c2ccc(C)cc2C)csc1NC(=O)CSc1nnnn1C | 1% | 4.0 | -2 | -24 | -29
COc1cc(NC(=O)c2ccc3c(=O)n(Cc4ccco4)c(=S)[nH]c3c2)cc(OC)c1OC | -1% | 1.5 | -6 | -51 | -4
COc1ccc(NC(=O)CSc2ncnc3c2nnn3-c2ccc(F)cc2)c(OC)c1 | 2% | -0.9 | 5 | . | -7
COC(=O)c1ccc2c(C)c(C(C)(C)O)[nH]c2c1 | . | -3.5 | 7 | . | .
COc1ccc(NC(=O)CSCC(=O)Nc2ccc(C)c(S(=O)(=O)N3CCCCCC3)c2)cc1 | . | 0.5 | 5 | . | .
N#CC1=C(N)Oc2cc(O)ccc2C1c1ccc2c(c1)OCO2 (centres undefined) | 8% | -2.9 | 4 | . | -7

An excerpt from above in order of molar mass, largest number first.
SMILES | Mtb growth | RecA intein inh | Mtb bLac sens | YopH inh | Arbovirus inh | others
COc1ccc(NC(=O)CSCC(=O)Nc2ccc(C)c(S(=O)(=O)N3CCCCCC3)c2)cc1 | . | 0.5 | 5 | . | .
COc1cc(NC(=O)c2ccc3c(=O)n(Cc4ccco4)c(=S)[nH]c3c2)cc(OC)c1OC | -1% | 1.5 | -6 | -51 | -4
O=c1[nH]c2cc3c(cc2cc1CN(Cc1ccco1)C(=S)NCC1CCCO1)OCCO3 (centres undefined) | -6% | 4.4 | -2 | . | -22
CCOC(=O)N1CCN(C(=O)c2cccc(S(=O)(=O)Nc3ccc(OC)cc3)c2)CC1 | . | 4.6 | -17 | . | .
CC(CNC(=O)c1ccc(OC2CCN(Cc3ccccn3)CC2)cc1)Oc1cccnc1 (centres undefined) | . | 0.6 | 8 | . | .
COc1ccc(NC(=O)CSc2ncnc3c2nnn3-c2ccc(F)cc2)c(OC)c1 | 2% | -0.9 | 5 | . | -7
CCOC(=O)c1c(-c2ccc(C)cc2C)csc1NC(=O)CSc1nnnn1C | 1% | 4.0 | -2 | -24 | -29
NC(=O)c1ccc(NC(=O)COC(=O)C2(c3cccc(F)c3)CCCC2)cc1 | 4% | -0.2 | 7 | . | 5
CC1CC(C)CN(S(=O)(=O)c2ccc(C(=O)NCc3ccco3)cc2)C1 (centres undefined) | -6% | 0.2 | -6 | . | 4
COC(=O)CNS(=O)(=O)c1ccc(OC)cc1 | -7% | -0.5 | -2 | 1 | 8
COC(=O)c1ccc2c(C)c(C(C)(C)O)[nH]c2c1 | . | -3.5 | 7 | . | .

Further compounds.
SMILES | Mtb growth | RecA intein inh | Mtb bLac sens | YopH inh | Arbovirus inh | others
CC1C/C(=N\NC(=O)c2cccnc2)CC(C)(C)C1 (centres undefined) | -1% | 5.1 | 8 | . | 13
O=C(N/N=C\c1ccccc1)c1sccc1-n1cccc1 | -1% | -0.6 | -3 | -3 | -5
O=C(/C(=N/N=C/c1ccc(O)c(O)c1)c1ccccc1)c1ccccc1 | -2% | 9.8 | 0 | -54 | -41
CCSc1nc(-c2ccco2)ccc1C#N | 0% | 4.0 | -4 | -34 | -8
O=C(CN(Cc1ccc2c(c1)OCO2)C(=O)CSc1nc2ccccc2o1)NC1CCCCC1 | -2% | 2.5 | ? | -52 | -2
O=C(CNC(=O)c1ccc(Br)o1)NCc1ccc(Cl)cc1Cl | . | -7.5 | -5 | . | .
O=C(NNC(=O)c1cccc(S(=O)(=O)N2CCc3ccccc32)c1)c1ccccc1 | 5% | 2.0 | . | . | 13
CCOc1ccc(Nc2ccc(C(=O)O)cc2[N+](=O)[O-])cc1 | . | -3.3 | -3 | . | .
O=C(O)c1ccc2c(c1)C(=O)N(c1ccc([N+](=O)[O-])cn1)C2=O | . | 6.0 | -3 | . | .
CC1CC1C(=O)OCC(=O)NC(=O)NCc1ccco1 (centres undefined) | 4% | 2.5 | -10 | -16 | 11
CCOC(=O)C1(CCCc2ccccc2)CCN(C(=O)Cc2nonc2C)CC1 | 6% | 2.8 | -7 | . | 17
CC1CN(S(=O)(=O)c2ccccc2)C(C)N1C(=O)N1CCOCC1 (centres undefined) | . | -1.0 | -2 | . | .
O=C(Cc1cccs1)N(c1ccc(Br)cc1)C1C=CS(=O)(=O)C1 (centres undefined) | -4% | -11 | 3 | . | 11
FC(F)(F)c1ccc(C2[C@H]3CN(Cc4cccnc4)[C@H](c4ccccc4)C34CC2(c2ccccc2)C4)cc1 (some centres undefined) | 2% | 14 | -9 | . | .
CCn1ccnc1CN(C)C(=O)c1cc(COc2ccc(Cl)cc2OC)on1 | . | 1.9 | 0 | . | .
Cn1c(=O)[nH]c(=O)c2c1nc(N1CCNCC1)n2CCOc1ccccc1 | -5% | -0.9 | -9 | -38 | .
O=C(CCNS(=O)(=O)c1ccc(Br)cc1)NC1CCCCC1 | 30% | 3.3 | 9 | . | 21
Cc1cc(C(=O)N/N=C/c2ccc(-c3ccc([N+](=O)[O-])cc3Cl)o2)n[nH]1 | . | -2.2 | 94 | . | .
O=C(NCCN1CCOCC1)c1c[nH]c2ccc(S(=O)(=O)N3CCOCC3)cc2c1=O | -8% | -0.9 | 2 | -24 | 4
CC(Sc1ccc(Cl)cc1)C(=O)Nc1ccccc1C(=O)N1CCOCC1 (centres undefined) | -1% | -1.5 | -9 | -21 | 4
Cn1cc(/C=C(\NC(=O)c2ccccc2)C(=O)NCCCN2CCOCC2)c2ccccc21 | . | -1.0 | 11 | . | .
CC1CCCN(S(=O)(=O)c2ccc(-c3ccc(=O)[nH]n3)o2)C1 (centres undefined) | . | -1.2 | 2 | . | .
Cc1cccc(OCc2nnc(SC(C)C(=O)O)n2Cc2ccccc2)c1 (centres undefined) | -5% | -0.6 | -4 | . | 1
CCc1ccc(NC(=O)CS(=O)CC(=O)NC(C)CCc2ccco2)cc1 (centres undefined) | -17% | 1.3 | -14 | -17 | -2
CC(C)(c1ccccc1)c1ccc(OCCCN2CCNCC2)cc1 | -5% | -8.1 | 11 | . | -41
COc1ccc(C(=O)c2c3ccc([N+](=O)[O-])cc3[n+]([O-])n2CCCN)cc1 | . | 8.8 | 63 | . | .
Cc1ccc(C)c(NC(=O)C2CCCC2)c1 | . | -2.9 | -3 | . | .
CCOC(=O)CNC(=S)N(Cc1ccc(C)cc1)Cc1ccc(C)o1 | 0% | 6.1 | 8 | -8 | 2
CCOc1cc(CNc2cccc3[nH]c(C)nc23)ccc1OC | . | -0.9 | -4 | . | .
CCCc1ccc(C(=O)NNc2cc(Cl)ccc2Cl)cc1 | 60% | 5.6 | 98 | . | .
COc1ccc(/C=N/NC(=O)c2nc(Cl)c(Cl)c(N)c2Cl)cc1COc1ccccc1F | 16% | -5.4 | 60 | -37 | -12
COc1ccc(N2C(=O)CC(N3CCN(c4ccc(S(=O)(=O)N5CCCC5)cc4)CC3)C2=O)cc1 (centres undefined) | -4% | -2.1 | -12 | -49 | 7
CCN(CC(=O)NCc1ccc(Cl)cc1)C(=O)CSCC(=O)Nc1ccc(OC)cc1 | . | 1.9 | -2 | . | .
COc1ccc(C(CCN2CCCC2)c2c(O)cc(OC)cc2OC)cc1 (centres undefined) | -1% | 0.8 | -2 | . | .
COc1ccc(Br)c(C(=O)Nc2ccc(F)cc2)c1 | -5% | 2.1 | 1 | . | .
CCCCn1c(SCC(=O)c2ccc(OCC)cc2)nc2cc(S(N)(=O)=O)ccc21 | 3% | 0.9 | -9 | -10 | 2
CCc1sc(C(=O)Nc2nccs2)cc1C | . | -0.6 | 98 | . | .
CN(CCO)CC(O)CN(c1ccccc1)c1ccccc1 (centres undefined) | 2% | -2.1 | -1 | . | .
CCCn1c(=O)n(C)c(=O)c2c(SCC(=O)NC34CC5CC(CC(C5)C3)C4)nc(CC(C)C)nc21 | -1% | 1.0 | -4 | -30 | -4
C/C(=C/CCC(C)[C@H]1CC[C@@]2(C)C3=C(CC[C@]12C)[C@@]1(C)CCC(=O)C(C)(C)[C@@H]1CC3)C(=O)O (some centres undefined) | 26% | 42* | -4 | -14 | -41
Cc1ccc(CNC(=O)C2CCCN(Cc3cnn(-c4ccccc4)c3-n3cccc3)C2)cc1 (centres undefined) | 3% | -4.9 | -18 | -33 | -18
COc1ccc(-c2cc3nc(-c4ccccc4)cc(N4CCCC(O)C4)n3n2)cc1 (centres undefined) | 12% | -0.2 | 1 | . | -28
Cc1cc(C)c2nc(N3CCCC(C(=O)N4CCN(c5ncccn5)CC4)C3)sc2c1 (centres undefined) | 40% | 3.8 | 98 | 10 | -41
CC1CCCN(C(=O)CSc2nnc(-c3ccc(S(=O)(=O)N4CCOCC4)cc3)n2C)C1 (centres undefined) | -8% | 1.9 | -1 | -42 | 1
COC(=O)CN(C)C(=O)c1ccc(OC2CCN(S(=O)(=O)N(C)C)CC2)cc1 | . | 1.5 | -6 | . | .
CCOC(=O)CNC(=O)c1ccccc1 | 1% | -3.0 | -13 | -2 | 6
Cc1ccc(S(=O)(=O)CCc2nc3ccccc3n2CCC#N)cc1 | -2% | -0.5 | 3 | -17 | 7 | Arbovirus inh repeat=9
Cc1ccc(NS(=O)(=O)c2ccc(NC(=O)C3CC3)cc2)c(C)c1 | . | 1.0 | ? | . | .
O=C(NCCc1ccccn1)C1CC(=O)N(Cc2ccccc2Cl)C1 (centres undefined) | -2% | -0.2 | -11 | -29 | 0

An excerpt, so the mix of outcomes need not match the whole.
